Screening results from PubChem.
Arbovirus anti – arbovirus infection inhibition. arbovirus infection cell-based antiviral screen. inhibition, % at 10 µM. 200,000 tested, 0.37% active. AID 1251;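 active means inhibition from about 30%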;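 further: bluetongue infection of BSR cells; cell survival read as ATP light after 72 h; 0% = infected wells without compound and 100% = uninfected wells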
Mtb betalactam – beta-lactam sensitization of Mtb H37Rv; M. tuberculosis H37Rv growth with meropenem, percent inhibition; hits of this screen are not shown here; 330,000 tested, 0.27% active; inhibition, % at 25 µM; AID 434955;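 active means about 74% or more and at least 40 points above the plate without the antibiotic, then above 30% in a dose series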;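 further: growth measured after seven days incubation then overnight dye step; 0% = bacteria only wells and 100% = bacteria with antibiotic; twin plates without the antibiotic show which effects depend on it; some results filed as inactive read as strong as hits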
Mtb H37Rv – M. tuberculosis H37Rv growth inhibitors, H37Rv strain (AID 1626); M. tuberculosis H37Rv growth inhibition; higher % means a stronger effect; inhibition, % at 10 µM; hits with a dose series show IC50 in µM; 220,000 tested, 0.95% active;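 active means confirmed in a dose series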;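 further: bacteria incubated seven days before Alamar blue readout; 0% = bacteria only wells and 100% = bacteria with antibiotic wells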
RecA splice inh – blocks M. tuberculosis RecA intein splicing; cell-free RecA intein splicing, fluorescence; inhibition, %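 (about 9 µM by stock and volumes)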; 290,000 tested, 0.75% active; AID 2221; in the data active means inhibition above about 30%;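 further: 0% = vehicle wells and 100% = reference inhibitor control wells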
Target sequence (P9WHJ3 whole entry, looked up, canonical isoform): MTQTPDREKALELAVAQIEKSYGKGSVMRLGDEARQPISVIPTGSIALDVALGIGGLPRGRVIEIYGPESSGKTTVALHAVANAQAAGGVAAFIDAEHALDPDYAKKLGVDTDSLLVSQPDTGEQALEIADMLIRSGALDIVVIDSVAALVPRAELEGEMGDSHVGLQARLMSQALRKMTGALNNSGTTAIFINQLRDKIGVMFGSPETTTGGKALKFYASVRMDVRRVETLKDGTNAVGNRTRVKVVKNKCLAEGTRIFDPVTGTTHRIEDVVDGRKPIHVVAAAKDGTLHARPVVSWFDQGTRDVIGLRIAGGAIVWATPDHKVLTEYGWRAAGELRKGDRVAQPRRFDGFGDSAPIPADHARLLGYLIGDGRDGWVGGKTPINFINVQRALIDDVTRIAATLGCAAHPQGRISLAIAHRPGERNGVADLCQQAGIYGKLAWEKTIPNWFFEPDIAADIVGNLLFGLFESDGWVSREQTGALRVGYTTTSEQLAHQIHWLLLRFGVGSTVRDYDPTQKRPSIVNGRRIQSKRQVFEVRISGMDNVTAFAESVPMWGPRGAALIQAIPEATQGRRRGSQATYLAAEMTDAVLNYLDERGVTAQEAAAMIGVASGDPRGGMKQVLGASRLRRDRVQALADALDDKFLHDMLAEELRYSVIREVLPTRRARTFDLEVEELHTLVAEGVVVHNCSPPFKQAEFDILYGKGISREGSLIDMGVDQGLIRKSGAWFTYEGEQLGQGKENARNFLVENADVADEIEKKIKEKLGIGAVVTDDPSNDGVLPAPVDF
YopH inh – blocks Yersinia enterocolitica YopH tyrosine phosphatase | fluorescence Ex485/Em525 | inhibition, %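 (about 10 µM by stock and volumes)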 | 140,000 tested, 0.16% active | AID 898;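 active means inhibition of 50% or more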;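 further: controls were vehicle for no effect and minimum signal wells for full effect; inactives centre near -20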
Arbovirus anti repeat – further read-out of Arbovirus anti, marked with its call; inhibition, %; measured here: 10K subset replicate screen; many hits read low in the repeat;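 first of two repeat runs on a subset; 0% = infected and 100% = uninfected wells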
An asterisk follows results filed as active; . = not tested or not shown. A portion of the library (hit frequency here may not be typical).

SMILES	Arbovirus anti	Mtb betalactam	Mtb H37Rv	RecA splice inh	YopH inh	others
CCc1nnc(NC(=O)C2CCCCN2S(=O)(=O)c2ccccc2)s1 (stereo unspecified)	4	-3	6%	0.7	.
O=C(CSc1oc(-c2ccco2)nc1S(=O)(=O)c1ccc(Cl)cc1)NCC1CCCO1 (stereo unspecified)	7	2	-6%	1.1	6	Arbovirus anti repeat=8
COc1ccc(C2(c3ccc(OC)cc3)NC(=O)N(CC(=O)Nc3ccccc3)C2=O)cc1	.	62	.	7.2	.
CCC(=O)N1CCN(C(C)=O)C1c1ccccc1 (stereo unspecified)	2	-2	-12%	0.6	-24
CCOC(=O)C1=C(N)N(c2cc(S(=O)(=O)N3CCOCC3)ccc2Cl)C(=O)C1	9	-5	0%	4.0	.
COc1cccc(C(C(=O)NC2CCCC2)N(C(=O)c2ccco2)c2ccccc2F)c1OC (stereo unspecified)	.	-8	.	2.3	.
CCOc1ncccc1C(=O)NCc1ccc(OC)cc1	-12	1	1%	3.9	-45
O=c1c2ccccc2nc2c3ccccc3c(NCc3ccco3)nn12	-11	2	.	-0.6	-4
CCC(C)N(C(=O)c1csnn1)C(C(=O)NCc1ccc(F)cc1)c1ccco1 (stereo unspecified)	-5	-9	-4%	5.8	-48
COCCOC(=O)C1=C(N)OC2=C(C(=O)CC(C)(C)C2)C1c1cccnc1 (stereo unspecified)	7	-4	6%	2.5	-24
CCOC(=O)c1c(C)n(C)c2ccc(OCC(O)CN3CCN(C)CC3)cc12 (stereo unspecified)	7	9	-1%	.	.	Arbovirus anti repeat=11
COC(=O)[C@H]1C[C@@H]1[C@H](NC(=O)c1cccnc1)c1ccccc1	.	0	8%	-0.5	.

Reprinted at random: 4 records from the list
SMILES	Arbovirus anti	Mtb betalactam	Mtb H37Rv	RecA splice inh	YopH inh	others
CCOC(=O)C1=C(N)N(c2cc(S(=O)(=O)N3CCOCC3)ccc2Cl)C(=O)C1	9	-5	0%	4.0	.
COc1ccc(C2(c3ccc(OC)cc3)NC(=O)N(CC(=O)Nc3ccccc3)C2=O)cc1	.	62	.	7.2	.
CCC(=O)N1CCN(C(C)=O)C1c1ccccc1 (stereo unspecified)	2	-2	-12%	0.6	-24
CCOc1ncccc1C(=O)NCc1ccc(OC)cc1	-12	1	1%	3.9	-45

(more compounds)
SMILES	Arbovirus anti	Mtb betalactam	Mtb H37Rv	RecA splice inh	YopH inh	others
O=C(NCCC1=CCCCC1)C1CCC(=O)N(Cc2cccc(C(F)(F)F)c2)C1 (stereo unspecified)	.	-15	.	0.3	.
Cc1cccc(C(=O)NC(C)c2ccc(-n3ccnc3)cc2)c1C (stereo unspecified)	.	-1	.	-4.9	.
COC(=O)c1c(C(=O)OC)c(-c2ccc(Br)cc2)n2c1CS(=O)C2 (stereo unspecified)	.	-3	.	0.6	.
Nc1nnc(SCC(=O)Nc2cc(F)ccc2F)s1	.	-8	.	-1.5	.
N#CC(c1ccc(Cl)cc1)c1nc2ccccc2nc1C(F)(F)F (stereo unspecified)	-8	-5	0%	17	-36
Cc1ccc(N2C(=O)N(CC(=O)Nc3cccc(C)c3C)C(=O)C2C)cc1 (stereo unspecified)	.	-2	.	-0.4	.
CC(OC(=O)CCc1ccccc1)C(=O)Nc1ncc(Cl)cc1Cl (stereo unspecified)	.	4	.	-5.5	.
CC(=O)c1ccc(NS(=O)(=O)c2ccc(CC(C)C)cc2)cc1	19	-6	15%	-1.6	-5
Cc1ccccc1NC(=O)C1CC(=O)N(Cc2ccccc2)C1 (stereo unspecified)	9	2	0%	0.2	.
CCOC(=O)c1cc2c(=O)n3ccccc3nc2n(Cc2ccco2)c1=NC(=O)c1ccc(OC)cc1	-9	5	0%	-73	.
Clc1ccc(-c2ccccc2)nn1	.	-11	-11%	0.1	.
Cc1cc(C)c(S(=O)(=O)N2CCN(S(=O)(=O)N3CCCCCC3)CC2)c(C)c1	.	5	.	2.1	.
CN(C)S(=O)(=O)c1ccc(C(=O)OCC(=O)NCc2ccco2)cc1	7	-6	4%	-1.2	.
O=C(NO)C1CC2C=CC1C2 (stereo unspecified)	-1	-2	0%	-4.4	-45
COc1ccc(C)cc1N(C(=O)c1snc(C(N)=O)c1N)C(C(=O)NC1CCCC1)c1ccc(F)cc1 (stereo unspecified)	.	12	.	4.4	.
Cc1ccc(N(C(=O)Cn2nnc(-c3ccc(C)o3)n2)C(C(=O)NC2CCCC2)c2ccco2)cc1 (stereo unspecified)	8	-7	5%	0.0	-38
C=C(C)C(=O)Nc1cccc(C2=NOC3(C2)C[C@@H](C(N)=O)N(C(=O)/C=C/CC)C3)c1 (stereo partly specified)	.	-2	-1%	0.5	.
CC1=NC(C)Cc2ccccc21 (stereo unspecified)	9	-1	-11%	-0.2	-34
[N-]=[N+]=CC(=O)CNC(=O)[C@@H](Cc1ccccc1)N1C(=O)c2ccccc2C1=O	3	-4	3%	3.4	-4
O=S(=O)(NCc1ccccc1)c1ccccc1Br	.	-6	4%	-0.4	.
C/C=C/c1cc(CN2CCN(c3ccc(OC)cc3)CC2)c(O)c(OC)c1	11	8	8%	.	.
Cc1ccc(C(=O)c2coc3ccc(O)c(CN4CCN(C)CC4)c23)cc1	-1	1	-3%	0.6	-3
COc1ccccc1-n1c(=O)[nH]c2c(C(N)=O)nc(-c3cccnc3)nc21	-3	0	2%	6.2	.	Arbovirus anti repeat=12
O=S(=O)(c1ccccc1)n1ccc2cccnc21	5	-3	-5%	.	-10

Filtered by structure, those above with two or more sulfur atoms
SMILES	Arbovirus anti	Mtb betalactam	Mtb H37Rv	RecA splice inh	YopH inh	others
CCc1nnc(NC(=O)C2CCCCN2S(=O)(=O)c2ccccc2)s1 (stereo unspecified)	4	-3	6%	0.7	.
O=C(CSc1oc(-c2ccco2)nc1S(=O)(=O)c1ccc(Cl)cc1)NCC1CCCO1 (stereo unspecified)	7	2	-6%	1.1	6	Arbovirus anti repeat=8
Nc1nnc(SCC(=O)Nc2cc(F)ccc2F)s1	.	-8	.	-1.5	.
Cc1cc(C)c(S(=O)(=O)N2CCN(S(=O)(=O)N3CCCCCC3)CC2)c(C)c1	.	5	.	2.1	.

(cont.)
SMILES	Arbovirus anti	Mtb betalactam	Mtb H37Rv	RecA splice inh	YopH inh	others
CC(=O)C1=C(O)C(=O)N(c2ccccn2)C1c1ccc(C)cc1 (stereo unspecified)	.	6	.	0.7	.
CCOC(=O)c1ccccc1NC(=O)CSc1nncn1C	3	-10	-5%	-0.8	.
C/C(=C\c1cccc(Cl)c1Cl)C(=O)c1c(C)cc(C)[nH]c1=O	.	2	.	1.1	.
COCCCNC(=O)Cc1ccccc1OC	3	2	-10%	2.4	-13
O=C1[C@@H]2Cc3c([nH]c4ccccc34)C(c3ccc(Cl)cc3)N2C(=O)CN1CCO (stereo partly specified)	.	-7	.	11	.
O=C1CC(c2ccccc2)CC(O)=C1C=NC1CCCCCC1 (stereo unspecified)	-3	-6	3%	-0.6	-36
O=C(OC1CCCCC1=O)c1cccc(S(=O)(=O)NCc2ccccc2)c1 (stereo unspecified)	6	-4	5%	1.2	-2
COc1ccc(NC(=O)c2cc3ccccn3n2)cc1	-3	-1	0%	-1.4	-36	Arbovirus anti repeat=-2
O=C(CSC1CC(=O)N(CCc2ccccc2)C1=O)Nc1cccc(Cl)c1 (stereo unspecified)	-4	1	2%	-4.9	-17
COc1ccc(OC(C)C(=O)NC2CCCCCCC2)cc1 (stereo unspecified)	.	-12	.	8.9	.
CCOC(=O)C(C(=O)NCc1ccc(F)cc1)c1ncc(C(F)(F)F)cc1Cl (stereo unspecified)	-4	-7	10%	2.8	-34
CC(=O)Nc1cccc(NC(=O)CS(=O)(=O)c2cn(CC(=O)N3CCCC3)c3ccccc23)c1	.	-11	.	-3.5	.
CC(=O)NC1(C(F)(F)F)C(=O)NC(C)=C1C#N (stereo unspecified)	-7	-1	-12%	0.6	-18
Cc1cc(C)n(CC(=O)n2c3c(c4ccccc42)CCCC3)n1	-2	-1	-6%	1.7	-33
Nc1nonc1-c1nc2ccccc2[nH]1	-5	-8	-2%	-0.5	-15
CC1CCCCN1CCNC(=O)C1CCCN(c2ncnc3c2nc2n3CCCCC2)C1 (stereo unspecified)	.	2	.	-2.0	.
CCN(CC)S(=O)(=O)c1cc([N+](=O)[O-])ccc1NNC(=O)Nc1ccc(F)cc1	-23	2	2%	3.9	3
CCCS(=O)(=O)N1CCCC(C(=O)N2CCC(Cc3ccccc3)CC2)C1 (stereo unspecified)	-1	5	3%	2.7	4
COc1ccc(C2(C(=O)NCCc3ccccc3)CCCC2)cc1OC	.	6	.	0.7	.
CN(C)c1nc(Nn2cnnc2)nc(N(C)C)n1	.	-1	-4%	-0.7	.
COc1ccc2c(Cl)c(-c3nnc(SCC(N)=O)n3C)sc2c1	8	-3	12%	-0.1	-29	Arbovirus anti repeat=10
Cc1ccc(S(=O)(=O)NC2(C(F)(F)F)C(=O)Nc3c2c(=O)[nH]c(=O)n3-c2ccccc2)cc1 (stereo unspecified)	1	5	4%	-1.0	-25
Oc1ccccc1C1=NN(c2ccccc2)C(c2ccccc2)C1 (stereo unspecified)	.	43	.	-67	.
O=C(c1nc2ccccc2[nH]1)c1ccccc1[N+](=O)[O-]	.	-3	4%	4.5	.
N#Cc1nc(-c2ccco2)oc1NCCN1CCOCC1	1	-4	-5%	0.5	-46
COc1ccc(S(=O)(=O)CCC(=O)N2CC(=O)N(CCc3ccccc3)C(=O)C2)cc1	1	7	7%	.	-7
O=C(NCc1ccccn1)c1ccc(OC2CCN(Cc3cccs3)CC2)cc1	.	2	.	-0.1	.
Cc1ccc(S(=O)(=O)NC(CC(=O)O)c2ccco2)cc1 (stereo unspecified)	6	5	-4%	1.1	-6
COc1ccc(C2CC(c3ccc4ccccc4c3OC(C)=O)=NN2C(=O)/C=C/c2ccccc2)cc1 (stereo unspecified)	25	3	51%	-5.0	2
COC(=O)c1[nH]c2cc(OC)ccc2c1N=CN(C)C	.	-1	1%	-1.8	.
CCOC(=O)c1cncc(C(=O)O)c1	7	-11	-3%	.	19
CCOC(=O)NC(=O)CSc1nc2ccc(C)cc2[nH]1	10	0	1%	1.9	.
CN1CCN(CC(=O)NN2CC(=O)N(c3ccc(F)cc3)CC2=O)CC1	.	-13	-2%	1.2	.
CC(C)(C)CC(=O)NCc1ccc(F)cc1	4	0	-6%	-1.2	-12
O=S(=O)(Nc1nc2c(s1)CCCC2)c1ccc2ccccc2c1	-13	-1	4%	4.7	-15
Cc1nc2ccccc2c(=O)n1-c1ccccn1	3	-14	-7%	-3.1	-13
